Compound activity: PubChem, several laboratories
ugtP null kill: kills S. aureus RN4220 lacking UgtP; S. aureus RN4220 ugtP deletion, OD600 growth, 16 h; some inactives read as strong as hits; growth inhibition, % (no concentration beside the values); hit rate 0.54% among 330,000; AID 1259309;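 active = z-score under -3 and OD600 up to 0.15 on both plates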;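 note: plate controls were untreated wells for no effect and antibiotic for full effect; wells of about 80 µL received 100 nL stock; the first replicate is given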
Bead autofluor: flagged as autofluorescent in microsphere protease counterscreen; compound autofluorescence counterscreen, microsphere flow cytometry; stronger effect = higher value; fluorescence intensity (no concentration beside the values); hit rate 3.1% among 360,000;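 active = at least 3 SD above the mean of all compounds, about 16000 in these data; inconclusive = too few beads counted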;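 note: 100 nL of 1 mM stock went into each well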
Mtb hypoxia rep: Mtb hypoxia fluorescent reporter inhibition. AID 1159583. hit rate 0.1% among 300,000. M. tuberculosis hypoxia-regulated fluorescent reporter, fluorescence. fluorescence inhibition, % (no concentration beside the values);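 active = 35 to 45% if threefold the growth effect, above 45% if 1.5-fold the growth effect; inactive = the rest, general growth blockers included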;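 note: wells of about 50 µL received 100 nL stock; 0% = vehicle wells and 100% = reference inhibitor wells; whole bacteria with a GFP reporter of the hypoxia response; strong numbers were not always called active; many hits fall short of the cut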
PrP 5UTR inh: suppresses PrP 5' UTR mRNA reporter expression. AID 488862. inhibition, % (concentration not given with the values). cell-based PrP 5' UTR mRNA reporter, plate reader. hit rate 0.35% among 340,000;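 active = every replicate at 50% or more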;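 note: 0 = median of the neutral control wells; tested in H4 reporter cells; numbers are from one replicate; inactives centre near -14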
Sa RN4220 lethal: kills Staphylococcus aureus RN4220 | hit rate 0.33% among 330,000 | S. aureus RN4220 growth, OD600, 16 h | inhibition, % (test concentration not listed);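 active = z-score of -3 or lower and OD600 up to 0.18 on both plates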;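 note: plate controls were untreated cells for no effect and reference antibiotic for full effect; stock transfer was 100 nL into about 80 µL; one replicate is shown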
BJeLR lethal: BJeLR cell viability loss. inhibition, % (concentration not given with the values). BJeLR (HRASV12) viability, CellTiter-Glo ATP luminescence, 48 h; reference of the scale not given here. hit rate 0.17% among 300,000. AID 1554;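 active = replicate mean above 50%; inconclusive = above 50% but judged a plate artefact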;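 note: 50 nL library stock added to about 25 µL; numbers are from one replicate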
Mtb hypoxia rep growth: second read-out of Mtb hypoxia rep, no call of its own (marks repeat the call); growth inhibition, %; measured here: M. tuberculosis growth (absorbance);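 0% = vehicle and 100% = reference antibiotic; read after six days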
* = called active by the depositor; ? = inconclusive; · = not tested or not shown.

compound	Bead autofluor	PrP 5UTR inh	Mtb hypoxia rep	Sa RN4220 lethal	Mtb hypoxia rep growth	ugtP null kill	BJeLR lethal
O=c1c2c3c(sc2ncn1N=Cc1ccco1)CCCC3	·	·	4	9.2	2	-9	·
O=C(CCSc1ccccc1)NCCSCc1ccccc1	2339	-18	16	-0.4	8	6	-18
Cc1cccc(Nc2nnc(SCC(=O)c3ccc(O)cc3O)s2)c1	3844	-16	-4	11	-5	19	-6
Cc1ccc(NC(=O)CN(C)C(=O)c2ccc(S(=O)(=O)N(C)c3ccccc3)cc2)cc1	4564	-10	15	6.2	6	-59	5
CCCC(=O)Nc1nc2ccc(OC)cc2s1	6001	-87	6	0.2	6	9	9
Cc1ccc(C(=O)OCN2C(=O)c3ccccc3C2=O)o1	?	5	3	2.2	6	3	-5
CCCCNS(=O)(=O)c1ccc(NC(=O)C2CCCO2)cc1 (stereo unspecified)	2104	-2	6	2.3	6	5	10
COc1ccc(NC2CCCN(C(=O)CCN3CCOCC3)C2)cc1 (stereo unspecified)	5361	-24	12	2.5	7	0	6
COc1ccccc1OCC(=O)NCC1CCCN(Cc2cnn(C(C)C)c2)C1 (stereo unspecified)	4023	-26	9	1.8	-1	4	4
Cc1ccc2nc(/C(C#N)=C\c3ccc(Oc4ccc(C(F)(F)F)cc4[N+](=O)[O-])cc3)[nH]c2c1	2447	-18	2	-7.9	0	-27	8
COc1ccc(/C=N/Nc2nonc2N)c(OC)c1	3949	-7	·	·	·	·	-8
CC(C)NC(=O)c1ccccc1NC(=O)Cc1ccc([N+](=O)[O-])cc1	4325	-17	10	-3.1	7	6	-17
CCC(NC(=O)Cc1c(C)c2c(cc(C)c3c(C)c(C)oc32)oc1=O)C(=O)O (stereo unspecified)	2982	-12	5	3.6	-2	-1	2
CCc1nc(N2CCCC2C(=O)O)c2oc3ccccc3c2n1 (stereo unspecified)	3332	-15	-3	1.0	10	-2	12
COc1ccc(NC(=O)C2Cc3ccccc3OC2=NO)cc1 (stereo unspecified)	·	·	9	1.8	8	3	·
C/C(=N\N=C(/N)SC1CC(=O)N(c2cccc(Cl)c2)C1=O)c1cccs1 (stereo unspecified)	9498	-25	·	·	·	·	5
Clc1cccc(OCCn2ccnc2)c1	3571	-7	8	5.2	-1	1	-1
CCCOC(=O)C1C2c3ccccc3C(c3ccccc32)C1C(=O)O (stereo unspecified)	5154	-17	11	1.0	-2	9	-8
CC1CCc2cc(F)ccc2N1C(=O)CSc1nnc(-c2cccs2)n1C (stereo unspecified)	23587*	-30	4	1.8	8	5	0
CC(=O)Nc1ccc(OC(=O)c2cc3ccccc3oc2=O)cc1	3619	-9	13	8.8	11	-5	1
CC1(C)CC(=O)c2c(nc(SCC(=O)Nc3nsc(-c4ccccc4)n3)c(C#N)c2-c2ccccc2)C1	3059	-12	8	-1.7	6	-1	59*
CCc1cccc(NC(=S)N(CCN(C)C)C(C)c2ccncc2)c1 (stereo unspecified)	5368	-18	8	5.8	10	13	15
COc1ccccc1N1CCN(C2CC(=O)N(C)C2=O)CC1 (stereo unspecified)	3823	-10	5	0.7	-3	2	2
CC1(C)C2CC=C(CN3CCOCC3)C1C2 (stereo unspecified)	22704*	-6	3	2.6	-2	7	1
CCCc1cc(=O)[nH]c(SCC(=O)Nc2nonc2C)n1	5373	-3	-2	1.4	-9	12	1
CN1CCN(C(=O)c2ccc(NS(=O)(=O)c3cccc([N+](=O)[O-])c3)cc2)CC1	5678	-30	5	3.4	2	8	·
Cc1cc(S(=O)(=O)N2CCOCC2)ccc1OCC(=O)N1CCC(C)CC1	3667	-41	6	1.8	1	6	11
CCN(CC(O)CON=C1c2ccccc2-c2ccccc21)S(=O)(=O)c1ccc(C)cc1 (stereo unspecified)	11225	-25	·	·	·	·	-14
O=C(Nc1cc(C(F)(F)F)ccc1-n1cnc2ccccc21)c1ccccc1	1904	-5	-1	4.6	4	-3	1
CCN(CC(=O)NCc1cccs1)C(=O)/C=C/c1ccc(OC)c(OC)c1	5391	-78	4	3.3	3	2	4
COc1cccc(-c2[nH]nc3c2C(c2ccc(C)o2)C(C#N)=C(N)O3)c1 (stereo unspecified)	·	·	5	6.5	4	-9	9
O=C(Cn1nnc2ccccc21)OCC(=O)c1ccc(Cl)c(Cl)c1	3166	3	4	-14	1	-8	-7
COc1ccc([N+](=O)[O-])cc1NC(=O)CCc1ccccc1	2222	-9	5	6.2	9	1	5
CC1(C)Cc2cccc(OCC(=O)N3CCN(S(=O)(=O)c4ccc(F)cc4)CC3)c2O1	6584	-8	2	2.4	-1	-1	0
O=C(O)c1cc(N/N=C2/CC(c3ccccc3)Oc3ccccc32)ccc1Cl (stereo unspecified)	2861	-15	·	·	·	·	5
CCN1CCN(C(=O)c2oc(=O)c3ccccc3c2-c2ccc(C)cc2)CC1	5922	-4	·	2.5	·	5	-14
CCn1ncc(Br)c1C(=O)Nc1ccc2c(c1)OCCO2	3133	-40	10	9.5	10	4	4
O=C(CSc1nnc(-c2cccnc2)n1Cc1ccco1)NCc1ccc2c(c1)OCO2	8850	-32	0	1.2	10	-5	-16
CCOc1ccc(-c2nnc(-c3ccccc3)n2-c2ccccc2)cc1	5598	-24	7	3.9	14	6	1
CCN(CC)c1ccc(-c2c(C#N)c(N)nc(OC)c2C#N)cc1	4464	8	9	8.0	13	10	-4
CC(OC(=O)c1ccccc1)C(=O)NCCC1=CCCCC1 (stereo unspecified)	4340	4	8	-1.2	2	7	-17
Cc1cc(SCC(=O)N/N=C/c2ccc(O)cc2O)nc2ccccc12	4023	15	·	·	·	·	13
c1ccc(-n2ncc3c(NCc4ccccn4)ncnc32)cc1	24065*	-17	2	4.3	1	1	2
Nc1nnc(SCCOc2ccc(Br)cc2)s1	4496	-31	·	0.3	·	4	20
Cc1cccc(NC(=O)c2ccc(S(=O)(=O)NCc3cccnc3)cc2)c1C	3645	-10	11	3.0	2	5	-5
O=C(Nc1nc2cc3c(cc2s1)OCO3)c1ccco1	3351	52	-4	0.5	6	-1	4
COc1ccccc1NC(=O)N(Cc1ccco1)Cc1cc2cccc(C)c2[nH]c1=O	3121	-15	9	-13	11	-4	-2
CCCCC(CCC(=O)Nc1cc([N+](=O)[O-])ccc1O)C(=O)O (stereo unspecified)	3896	-27	2	4.9	2	5	0
Cc1ccc(NC(=O)C2C(=O)N(CCO)C3(C)CC2c2ccccc2O3)cc1 (stereo unspecified)	11227	-29	5	3.2	-2	1	-5
O=C(Oc1ccccc1)N(c1ccccc1)c1ccccc1	·	·	17	2.9	6	8	11
O=S1(=O)CCOCCCN1Cc1cccc(C(F)(F)F)c1	4488	-19	-1	-2.9	3	-3	-14
CSc1nc(Oc2ccc(F)cc2F)cc(C(F)(F)F)n1	3385	-3	·	5.3	·	16	-3
COc1cc(NC(=O)c2ccc([N+](=O)[O-])cc2)c(OC)cc1NC(=O)CC(C)C	3282	-20	1	3.8	3	3	12
CC(=NOCC(=O)OCC(=O)NC(=O)c1ccccc1)c1ccc2c(c1)OCO2	·	·	-4	0.5	5	1	·
CCCN(CCC)C(=O)CSc1nc2c(sc(=S)n2-c2ccc(OCC)cc2)c(=O)[nH]1	4567	-13	9	5.8	0	-4	5
COc1ccc(C(=O)Nc2cccc(/C=C(/CCC(=O)O)c3nc4ccccc4s3)c2)cc1	2923	-9	2	20	1	-2	·
CCC(=O)c1cn(CC(=O)NCc2ccco2)c2ccccc12	2638	-6	12	2.1	8	5	-8
CCCC(=O)Nc1ccc(C(=O)N2CCCC2)cc1	6908	-12	7	-1.0	-6	1	-4
COc1ccc(C)cc1S(=O)(=O)N1CCN(C/C=C/c2ccccc2)CC1	·	-12	5	0.7	-1	12	·
O=C(COC(=O)c1ccc[nH]c1=O)Nc1cc(S(=O)(=O)N2CCCCCC2)ccc1Cl	5874	-27	2	3.5	4	6	·

Next section.
compound	Bead autofluor	PrP 5UTR inh	Mtb hypoxia rep	Sa RN4220 lethal	Mtb hypoxia rep growth	ugtP null kill	BJeLR lethal
O=C(C1=C[C@H](c2ccc(C(F)(F)F)cc2)C[C@H](OCc2ccc(CO)cc2)O1)N1CCCCCCC1	2923	-14	·	·	·	·	-1
O=S(=O)(Nc1ccc(O)c(Sc2nc3ccccc3s2)c1)c1cccc2ccccc12	2127	-23	4	0.1	6	39	-12
CN1CCN(S(=O)(=O)c2cc([N+](=O)[O-])ccc2NN=Cc2ccc(Cl)cc2)CC1	·	·	-6	4.9	-2	12	·
COc1ccccc1C(CNC(=O)c1ccc(C)c(S(=O)(=O)N2CCCCC2)c1)N1CCCC1 (stereo unspecified)	71619*	-13	-7	-1.2	-4	2	·
COc1cccc(-c2cc(=O)c3cc(NC(=O)c4ccc(Cl)cc4)ccc3[nH]2)c1	3311	-16	19	11	-2	9	24

Ordered by molar mass (lowest first): some entries from above.
compound	Bead autofluor	PrP 5UTR inh	Mtb hypoxia rep	Sa RN4220 lethal	Mtb hypoxia rep growth	ugtP null kill	BJeLR lethal
COc1ccc(/C=N/Nc2nonc2N)c(OC)c1	3949	-7	·	·	·	·	-8
COc1ccc(NC(=O)C2Cc3ccccc3OC2=NO)cc1 (stereo unspecified)	·	·	9	1.8	8	3	·
CCc1cccc(NC(=S)N(CCN(C)C)C(C)c2ccncc2)c1 (stereo unspecified)	5368	-18	8	5.8	10	13	15
CCN1CCN(C(=O)c2oc(=O)c3ccccc3c2-c2ccc(C)cc2)CC1	5922	-4	·	2.5	·	5	-14
CCC(NC(=O)Cc1c(C)c2c(cc(C)c3c(C)c(C)oc32)oc1=O)C(=O)O (stereo unspecified)	2982	-12	5	3.6	-2	-1	2
COc1ccc(C)cc1S(=O)(=O)N1CCN(C/C=C/c2ccccc2)CC1	·	-12	5	0.7	-1	12	·
Cc1cc(S(=O)(=O)N2CCOCC2)ccc1OCC(=O)N1CCC(C)CC1	3667	-41	6	1.8	1	6	11
COc1ccccc1NC(=O)N(Cc1ccco1)Cc1cc2cccc(C)c2[nH]c1=O	3121	-15	9	-13	11	-4	-2
CN1CCN(S(=O)(=O)c2cc([N+](=O)[O-])ccc2NN=Cc2ccc(Cl)cc2)CC1	·	·	-6	4.9	-2	12	·
O=C(CSc1nnc(-c2cccnc2)n1Cc1ccco1)NCc1ccc2c(c1)OCO2	8850	-32	0	1.2	10	-5	-16
COc1ccccc1C(CNC(=O)c1ccc(C)c(S(=O)(=O)N2CCCCC2)c1)N1CCCC1 (stereo unspecified)	71619*	-13	-7	-1.2	-4	2	·
